NPYLR7 agonist = activates Aedes aegypti NPYLR7 receptor; HEK293T NPYLR7/Galpha15, GCaMP6s calcium fluorescence; activation, % at 10 µM; 0.15% of 270,000 active; in the data active means activation above about 40%;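 further: 0% = vehicle and 100% = reference agonist at the receptor; some compounds past the cut are filed as inactive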
NPYLR7 agonist max-min = further read-out of NPYLR7 agonist, marked with its call; activation, %; measured here: Max-Min RFU normalised activation; some inactives read as strong as hits;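 span of the calcium signal over five minutes; 0% = vehicle and 100% = native peptide agonist; compound fluorescence can raise it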
The depositor's hits bear a star; & = joins results of further samples. The list is partial, so the mix of outcomes need not match the whole.

SMILES	NPYLR7 agonist	NPYLR7 agonist max-min
O=C(CN1CCCN(C(=O)c2ccc(F)cc2)CC1)N1CCc2ccccc2C1	-2	-3
CCOC(=O)C1CCN(/C=C2\Oc3cc(O)ccc3C2=O)CC1	-11	-17
CCOC(CNC(=O)c1c(O)nc2c(C)cccn2c1=O)OCC	-2	5
CC(=O)Oc1c(C)cc(CNC2CCN(S(C)(=O)=O)CC2)cc1C	-2	-7
CCc1cccc(CC)c1NC(=O)CS(=O)(=O)Cc1cc(=O)n2ccsc2n1	10	5
CS(=O)(=O)c1ccc(CC(=O)N(Cc2ccccn2)c2nc3ccc([N+](=O)[O-])cc3s2)cc1	5	3
O=C(CC1C=CCC1)N1CCN(Cc2cccc(-c3noc(-c4cccc(Cl)c4)n3)c2)CC1 (stereo not drawn)	-6	-11
O=C(O)c1cc(C=CC(=O)c2cc(Cl)ccc2O)c2c(c1)COCO2	-4	13
O=C(Cc1noc2ccccc12)NCC1CCCN1Cc1ccccc1 (stereo not drawn)	7	2
O=C(C=Cc1ccc(Br)o1)OCn1nnc2ccccc2c1=O	1	-1
O=[N+]([O-])c1cc2c3c(c1)C1C=CCC1C(c1ccccc1)N3CC1CC=CC21 (stereo not drawn)	-16	-19
CC(NS(=O)(=O)Cc1cccc(C(F)(F)F)c1)c1cccc(Br)c1 (stereo not drawn)	-2	-3
C#Cc1cccc(NC(=O)N2CCN(C(C)C)CC2)c1	5	2
O=c1cc(-c2ccccc2)nc2sc(Br)nn12	9	8
C=CCN1C(=O)C(=O)N(CC(=O)c2cc(C)n(CCCOC)c2C)C1=O	1	15
Cc1occc1SCc1csc(Cc2ccc(F)cc2Cl)n1	5	7
Cc1noc(C)c1C(=O)N1CCCN(Cc2cc(=O)c(OCc3ccc(C(C)(C)C)cc3)co2)CC1	22	25
Cn1c(=O)c2c(SCc3ccccc3F)nc(C3CC3)nc2n(C)c1=O	7	9
C=CCN1CCC(C(=O)NC(c2ccccn2)c2ccccc2OC)CC1 (stereo not drawn)	6	6
COc1ccc(C2(C(=O)N3CC(c4ccncc4)C3)CC2)cc1	1	13
CCCCCCCCC(=O)N(CCOC)C(C)C(=O)c1c(C)[nH]c(C(=O)OCC)c1C (stereo not drawn)	16	12
COc1ccc(CNC(=O)c2cccnc2N2CCN(C(=O)c3ccccn3)CC2)cc1	-5	8
Cc1cc(C)n(CC(C)NC(=O)c2cn(CCC3CCCCC3)nn2)n1 (stereo not drawn)	11	-2
Cc1ccc(C(=O)N(Cc2cccnc2)c2nc3cc4c(cc3s2)OCCO4)cc1	-5	1
CCC(=O)N1CCN(c2cc(Cl)nc(SCC(=O)Nc3ccc(F)cc3)n2)CC1C (stereo not drawn)	-1	-10

2 records drawn at random from the list so far:
SMILES	NPYLR7 agonist	NPYLR7 agonist max-min
Cc1cc(C)n(CC(C)NC(=O)c2cn(CCC3CCCCC3)nn2)n1 (stereo not drawn)	11	-2
O=C(CN1CCCN(C(=O)c2ccc(F)cc2)CC1)N1CCc2ccccc2C1	-2	-3

(list continues)
SMILES	NPYLR7 agonist	NPYLR7 agonist max-min
CN(Cc1ncc[nH]1)c1nccc(C2CCCC2)n1	22	17
O=C(CCC1CCCOC1)Nc1cc(-c2cccs2)ncn1 (stereo not drawn)	-25&0	-28&1
CCC(=O)c1ccc(OCC(=O)N2CCS(=O)(=O)c3ccccc32)cc1	-2	-4
COC(=O)c1cc(C(=O)N2c3ccccc3Sc3ccccc32)cc([N+](=O)[O-])c1	0	-2
O=C(C(Cc1ccccc1)c1ccccc1)N1CCC(c2ccc(F)cc2)CC1 (stereo not drawn)	-9	-16
CCOc1ccccc1OCCCC(=O)Nc1nncs1	8	6
COc1ccc(-c2cnc3ncnn3c2N2CCN(S(=O)(=O)c3cc(Cl)cc(Cl)c3)CC2)cc1OC	11	8
CC(=O)N(C)c1ccc(NC(=O)NC2(c3ccccc3F)CC2)cc1	3	4
O=C(NC1CC1)c1ccccc1N1CCC(NC(=O)C2CCCC2)CC1	0	7
Cc1ccc(-c2nc(C=Nc3ccc(Br)cn3)c(O)o2)cc1	-6	-12
Clc1nc(Nc2ccccc2)sc1/C=N\n1cnnc1	9	10
N#Cc1cccc(C(=O)Nc2ccc(Cl)cc2C(=O)N2CCCC(C(N)=O)C2)c1 (stereo not drawn)	7	2
CCOC(=O)c1cccc(NC(=O)N(Cc2ccc3c(c2)c2ccccc2n3CC)Cc2ccco2)c1	1	-2
CCCc1cc(C2CCCN2C(=O)c2cc(C3CCCCC3)no2)no1 (stereo not drawn)	-3	-8
Cc1cccc(Cn2nc(C)cc2NC(=O)CC2CCS(=O)(=O)C2)c1 (stereo not drawn)	30	14
CC1CCc2c(sc(NC(=O)CN3CCN(Cc4ccc(Cl)s4)CC3)c2C#N)C1 (stereo not drawn)	-9	-12
COc1cc(/C=C/C(=O)Nc2nc3ccc4sc(C)nc4c3s2)cc(OC)c1OC	0	-1
COc1ccccc1-c1cc(C(=O)N2CCN(c3ccccc3F)CC2)n2nc(C(C)(C)C)cc2n1	1&-9	14&-1
O=C(Nc1ccc(Cl)cc1F)c1ccc(CN2CCCC2=O)cc1	5	2
COc1ccc(-n2c(CCC(=O)NCCN3CCOCC3)cc3c2-c2ccccc2CC3)cc1	0	-2
Cc1ccccc1C1c2ccsc2CCN1C(C)C(=O)N1CCCN(C(=O)c2ccc(Cl)cc2)CC1 (stereo not drawn)	9	3
C=CCc1ccc(OC(=O)c2ccccc2)c(OC)c1	-3	-11
Cc1c(C(=O)N2CCCC3(CN(C)C(=O)O3)C2)[nH]c2ccc(F)cc12 (stereo not drawn)	5	3
Cn1nc([N+](=O)[O-])nc1Sc1ccccn1	8	5
O=C(OCc1c(Cl)cccc1Cl)c1cnccn1	11	12
Next part
SMILES	NPYLR7 agonist	NPYLR7 agonist max-min
CC(=O)c1ccc(N=c2scc(C)n2C(C)C)cc1	-4	-6
CC1CCc2oc3ccc(NS(=O)(=O)c4ccc(F)cc4)cc3c2C1 (stereo not drawn)	-1	-4
Cc1cccc(-c2cccc(NC(=O)C3CCCN(C(=O)c4cc(C)on4)C3)c2)c1 (stereo not drawn)	3	2
CCOc1ccc(C(=O)Oc2cc(C)[nH]c(=O)c2[N+](=O)[O-])cc1OCC	7	5
O=C(CCC1CCN(C(=O)c2cnc[nH]2)CC1)N1CCC(Cc2ccccc2)CC1	6	1
O=C(NCc1cc(-c2cc3ccccc3o2)on1)c1cc2ccccc2oc1=O	-3	-4
O=C(c1cccc(F)c1)N(CCCn1ccnc1)c1nc2ccccc2s1	-20	-23
O=C(NC1CCN(Cc2cccnc2)CC1)c1cccc2nccnc12	-6	-6
O=C1NC2(CCN(S(=O)(=O)c3ccccc3)CC2)Nc2ccc(Br)cc21	-1	11
COCc1cc(CNC(=O)c2cn(Cc3ccccc3F)nn2)[nH]n1	8	5
COc1cccc(CN2CCN(Cc3cn[nH]c3-c3cccc(F)c3)CC2CCO)c1 (stereo not drawn)	3	-1
Cc1[nH]n(-c2cccc(C(F)(F)F)c2)c(=O)c1N=Nc1cccc(C(F)(F)F)c1	-5	-11
O=c1c2cnc3nc(-c4ccccc4)nn3c2ccn1-n1cnnc1	2	3
COc1ccc(C(=O)Nc2c(N)nc(SCC(=O)c3ccccc3)[nH]c2=O)cc1	-5	-2
CCCc1nc(CNC(=O)C2CCCN(Cc3ccco3)C2)cs1 (stereo not drawn)	-9	-15
Cc1cc(C(=O)N2CCOCC2)n2nc(C(C)(C)C)cc2n1	14	12
Cc1c(C(=O)N2CCN(c3ncccc3C(=O)NCc3cccs3)CC2)oc2ccccc12	24	25
CC(c1cccc(Cl)c1)N(C)C(=O)Nc1cccn(C)c1=O (stereo not drawn)	13	10
Cn1nnc2c(N3CCN(C(=O)C4CC4)CC3)ncnc21	2	15
C=CC[C@@H]1CC=C[C@@H](C)N1C(=O)c1cc(COc2ccc3sc(C)nc3c2)on1	5	8
CC(NS(=O)(=O)NCc1ccccc1)c1cn2ccsc2n1 (stereo not drawn)	10	3
O=C(O)C1CCC(N2C(=O)c3c(Cl)c(Cl)c(Cl)c(Cl)c3C2=O)CC1 (stereo not drawn)	-9	-17
CC(=O)Oc1c(-c2ccc(NC(=O)c3cccs3)cc2)c(-c2ccc(C)cc2)nn1-c1ccc(C)cc1	-2	-1
Cc1nc(N2CCCCC2)ncc1C(=O)N1CCOC(CN)C1 (stereo not drawn)	-3	-7
O=S1(=O)CC2NC(=S)N(c3cccc(Cl)c3Cl)C2C1 (stereo not drawn)	1	23
The list goes on:
SMILES	NPYLR7 agonist	NPYLR7 agonist max-min
COc1ccccc1OC1CCN(C(=O)c2ccc(-n3cc(NC(=O)C4CCOC4)cn3)cc2)CC1 (stereo not drawn)	2	2
COc1ccccc1OCCSc1nc2ccccc2n1CCC(=O)O	-2	-5
COC(=O)c1ccc2oc(=O)n(C3CCN(C(=O)C4CCCC4)CC3)c2c1	1	-2
CCOC(=O)C1(Cc2cccc(OC)c2)CCN(Cc2nc3c(s2)CCCC3)CC1	-7	-14
Cc1nc(N2CCCCCCC2)ncc1C(C)NCc1cnc(C)n1C (stereo not drawn)	16	8
COc1cc(C=NNC(=O)c2cc(C(C)C)[nH]n2)ccc1O	4	5
CC(=O)Nc1cccc(-c2nccc3n[nH]c(C4CCCCC4)c23)c1	1	0
CCc1nc2ccc(C(=O)NCc3ccccc3OC)cn2c1N(CCC(C)C)CCN(C)C	-6	-8
COc1ccc(N2C(=O)C(c3c(-c4ccccc4)[nH]n(C)c3=O)=C(N3CCCC3)C2=O)c(OC)c1	5	9
c1cc2c(s1)CCN(Cc1nc(-c3ccc4c(c3)OCO4)no1)C2	1	-3
Cc1cccc(COC2CCCN(C(=O)Cc3ccccc3)C2)c1 (stereo not drawn)	6	13
CSc1nc(N2CCCC2)c2cnn(CCNC(=O)CSc3ccc(F)cc3)c2n1	7	5
FC(F)Oc1ccc(Br)cc1/C=C1/CCC=C1N1CCOCC1	11	9
CC(C)c1cc(C(=O)N(C)CCC(O)c2ccccc2)n(C)n1 (stereo not drawn)	0	-3
Cc1ccc(OCCCC(=O)Nc2ccc(C(N)=O)cc2)c(C)c1	-3	0
Cc1ccc(C(=O)N2C(=S)C(c3ccccc3)=NC2(C)C)cc1	8	0
C=CCc1cc(C(=O)NCC(=O)NC(C)(C)C)cc(OC)c1OC	11	8
CCCc1nnc(C(=O)N2CC[C@H](NC(C)=O)C2)o1	2	-1
Nc1nonc1-c1noc(-c2ccccc2Cl)n1	0	0
Cn1c(=O)[nH]c(=O)c2c1nc(N1CCN(Cc3ccccc3F)CC1)n2Cc1ccccc1Cl	-2	30
Cc1ccn2c(NC(C)(C)CC(C)(C)C)c(-c3cccc(OC(=O)c4ccccc4F)c3)nc2c1	24	23
Cc1cc(C(C)(C)C)cc(C)c1Cn1nc(C)c(C)c(C#N)c1=O	3	-3
OC(COCc1ccccc1)CN(Cc1cccs1)C1CC1 (stereo not drawn)	24	18
CCOC(=O)C1(Cc2ccccc2)CCCN(Cc2c(C)n(C)n(-c3ccccc3)c2=O)C1 (stereo not drawn)	3&13	0&15
CC1=NC2=C(C(=O)CCC2)C(c2ccc(OCc3ccc(Cl)cc3)cc2)C1C#N (stereo not drawn)	-8	-12

Complete entries, quoted from the list.
Profile of `C=CCc1cc(C(=O)NCC(=O)NC(C)(C)C)cc(OC)c1OC` = NPYLR7 agonist: 11; NPYLR7 agonist max-min: 8
Profile of `CC(NS(=O)(=O)NCc1ccccc1)c1cn2ccsc2n1` (stereo not drawn) = NPYLR7 agonist: 10; NPYLR7 agonist max-min: 3

The main list resumes, repeating the 6 entries before the break.
SMILES	NPYLR7 agonist	NPYLR7 agonist max-min
Cn1c(=O)[nH]c(=O)c2c1nc(N1CCN(Cc3ccccc3F)CC1)n2Cc1ccccc1Cl	-2	30
Cc1ccn2c(NC(C)(C)CC(C)(C)C)c(-c3cccc(OC(=O)c4ccccc4F)c3)nc2c1	24	23
Cc1cc(C(C)(C)C)cc(C)c1Cn1nc(C)c(C)c(C#N)c1=O	3	-3
OC(COCc1ccccc1)CN(Cc1cccs1)C1CC1 (stereo not drawn)	24	18
CCOC(=O)C1(Cc2ccccc2)CCCN(Cc2c(C)n(C)n(-c3ccccc3)c2=O)C1 (stereo not drawn)	3&13	0&15
CC1=NC2=C(C(=O)CCC2)C(c2ccc(OCc3ccc(Cl)cc3)cc2)C1C#N (stereo not drawn)	-8	-12
Cc1nnc(Sc2cc(=O)oc3ccccc23)s1	3	6
c1coc(-c2nccn2CCc2c[nH]c3ccccc23)c1	3	2
CCC(C)(C)C1CCC(=NNC(=O)c2ccoc2C)CC1 (stereo not drawn)	-12	-18
CCCOC(=O)c1ccccc1OCC(N)=O	-2	0
O=C(CSc1ccc2nnc(-c3ccncc3)n2n1)N1CCCC1	-3	-5
N#C/C(=C/c1cn(-c2ccc([N+](=O)[O-])cc2)nc1-c1ccccc1)c1nc2ccccc2c(=O)[nH]1	24	22
COc1ccc(-c2nc(NCCNC(=O)c3ccc(C(C)(C)C)cc3)c3ccccc3n2)cc1	7	15
Brc1ccc(OCc2cccc3ccccc23)nc1	2	-1
Cc1ccc(-c2cc(C(=O)N3CCCC(N4CCc5ccccc5C4)C3)n[nH]2)s1 (stereo not drawn)	5	0
CN(C)C(=O)CNc1cccc(CS(=O)c2ccccc2)c1 (stereo not drawn)	-11	-13
CN(Cc1cccs1)C(=O)CN1CCC(=O)Nc2cc(F)ccc21	-4	-5
CCc1[nH]c2ccc(CNC(=O)CCc3nncn3C)cc2c1C	7	4
CCOC(=O)c1cn[nH]c1S(=O)(=O)Nc1cc(C)ccc1OC	3	1
O=C(NCc1ccccc1-n1ccnc1)c1ccc(Cl)cn1	8	6
CN(CC(C)(C)CNC(=O)C1CCCC1)C(=O)C1CCCC1	-2	-3

Screens from PubChem.
